High-throughput results: PubChem BioAssay, several laboratories
ALR H2O2 inh: inhibitors of human ALR sulfhydryl oxidase, primary screen, biochemical, H2O2 detection, HRP-luminol luminescence, single point; purified ALR, DTT oxidation; FAD-linked sulfhydryl oxidase ALR (Homo sapiens), P55789; inhibition, % (no concentration beside the values); hit rate 3.8% among 290,000;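 active = mean and each replicate at 75% or more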;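 also: stock transfer was 7.5 nL into about 7.5 µL; 0% = neutral wells and 100% = wells with inactivated enzyme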
UCH37 DUB inh: inhibitors of human UCH37 deubiquitinase, primary screen, biochemical, Ub-AMC cleavage, fluorescence; purified proteasome/UCH37; inhibition, % (no concentration beside the values); hit rate 0.33% among 330,000;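 active = mean of two replicates above 20%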;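 also: 0% = compound-free wells with enzyme and 100% = wells lacking proteasome; stock transfer was 100 nL into about 20 µL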
Target sequence (Q9Y5K5 whole entry, looked up): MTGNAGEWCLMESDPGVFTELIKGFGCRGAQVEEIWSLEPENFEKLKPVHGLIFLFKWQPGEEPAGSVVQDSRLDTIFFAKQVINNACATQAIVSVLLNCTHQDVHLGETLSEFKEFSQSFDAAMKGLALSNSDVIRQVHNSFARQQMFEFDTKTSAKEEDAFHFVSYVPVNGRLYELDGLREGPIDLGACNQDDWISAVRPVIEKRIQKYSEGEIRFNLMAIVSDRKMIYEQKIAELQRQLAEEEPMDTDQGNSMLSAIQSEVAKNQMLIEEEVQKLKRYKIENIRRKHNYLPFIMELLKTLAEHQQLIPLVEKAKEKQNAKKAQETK
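Material: Human UCH37 enzyme supplied as purified proteasome complex | Schedule: 30 min compound-proteasome preincubation then 25 min substrate reaction, room temperature | Detection: AMC fluorescence from Ub-AMC cleavage, excitation 355 nm, emission 460 nm | Benchmarks: Wells without proteasome as full block, compound-free enzyme plus substrate as uninhibited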
Ecoli rRNA inh: reduced GFP signal of wild-type E. coli, primary screen, bacterial rRNA inhibitor project, GFP/RFP fluorescence, OD600, single point. E. coli WT GFP vs humanized-ribosome RFP mutants, 24 h; stronger effect = lower value; DMSO median 0, no signal -100. GFP signal change (wild-type ribosome), % (concentration not given with the values). hit rate 1.6% among 350,000. AID 720706, 2013;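 active = significant combined selectivity score with lowered wild-type GFP, culture density cut under 30%, mutant RFP and density less affected; inactive = any of these conditions unmet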; also: one replicate is shown; some compounds called inactive have numbers as strong as hits
E coli growth: E. coli growth inhibition, primary screen, OD600; Escherichia coli growth, 23 h; stronger effect = lower value; OD600 absorbance (test concentration not listed); hit rate 0.21% among 330,000;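 active = OD600 absorbance below the run mean of sample wells minus 3.6 SD, in any replicate, cut at about 0.56 in these data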;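 also: stock transfer was 300 nL into about 60 µL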
FGF22 binding: binders of human FGF22 protein, primary screen, FGF22 synaptogenesis inhibitor project, biophysical, thermal shift, single point; recombinant FGF22 thermal shift, SYPRO orange fluorescence; percent of sucrose octasulfate shift, DMSO zero; Fibroblast growth factor 22 (Homo sapiens), Q9HCT0; calls only at 9.99 µM; hit rate 1.5% among 340,000;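 active = melting point raised past a set limit in the mean and every replicate; three in four hits are not shown here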
Target sequence (Q9HCT0 whole entry, looked up): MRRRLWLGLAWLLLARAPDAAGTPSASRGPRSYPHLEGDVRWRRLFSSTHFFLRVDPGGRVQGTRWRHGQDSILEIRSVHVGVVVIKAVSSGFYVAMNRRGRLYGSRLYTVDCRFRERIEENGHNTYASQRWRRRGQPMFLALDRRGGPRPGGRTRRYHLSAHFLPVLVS
B2AR ag: beta2AR agonists driving receptor internalization, primary screen, cell-based, FAP fluorogen, flow cytometry | Am2.2-beta2AR cells; reference of the scale not given here | response, % (test concentration not listed) | hit rate 0.43% among 340,000 | Beta-2 adrenergic receptor (Homo sapiens), P07550;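 active = response above a set limit, near 3 SD of response in nonfluorescent compounds, cut at about 42% in these data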;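 also: stock transfer was 100 nL into about 11 µL; a reference agonist was the positive control; negative values mostly stem from fluorescent compounds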
Target sequence (P07550 whole entry, looked up): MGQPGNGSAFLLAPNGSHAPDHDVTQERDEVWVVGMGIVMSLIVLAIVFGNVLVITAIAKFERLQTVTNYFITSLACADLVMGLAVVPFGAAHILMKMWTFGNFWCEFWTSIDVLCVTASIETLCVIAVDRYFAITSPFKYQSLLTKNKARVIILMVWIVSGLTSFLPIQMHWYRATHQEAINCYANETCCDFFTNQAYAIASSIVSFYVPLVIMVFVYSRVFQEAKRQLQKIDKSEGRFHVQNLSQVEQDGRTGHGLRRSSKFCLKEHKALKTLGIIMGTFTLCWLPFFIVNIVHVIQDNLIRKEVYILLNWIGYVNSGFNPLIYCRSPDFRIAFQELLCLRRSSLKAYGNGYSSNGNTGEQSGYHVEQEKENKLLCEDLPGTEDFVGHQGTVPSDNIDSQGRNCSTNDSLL
HNF4A DNA FP: change in binding of human HNF4A to DNA, primary screen, biochemical, fluorescence polarization, FITC-DNA; hit rate 0.3% among 360,000; Hepatocyte nuclear factor 4-alpha (Homo sapiens), P41235; activity change, % at 10 µM; 1 h; AID 1224865, 2016; in the data active = activity change above about 30%, passing the limit was not always enough;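 also: controls were the assay level and a saturating level of protein; the project sought stronger binding though the title names inhibitors; some compounds called inactive have numbers as strong as hits; positive values seem to mean higher polarization but the record does not say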
Ecoli rRNA inh OD600: further read-out of Ecoli rRNA inh, marked with its call; OD600 change, %; measured here: OD600 growth;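 optical density of the mix in the first replicate; 0 = DMSO median and -100 = no signal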
Ecoli rRNA inh RFP: recorded beside Ecoli rRNA inh, whose call it bears; RFP signal change, %; measured here: RFP humanized mutant strains;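 first replicate; 0 = DMSO median and -100 = no signal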
* marks the source's active call; other numbers are inactive results; i = inactive; . = not tested or not shown; + = active, no number; & = joins results of further samples; ! = not active in a repeat.

mol	ALR H2O2 inh	UCH37 DUB inh	Ecoli rRNA inh	Ecoli rRNA inh OD600	Ecoli rRNA inh RFP	E coli growth	FGF22 binding	B2AR ag	HNF4A DNA FP
COc1ccc(-n2nnc3c(=O)n(CC(=O)OCc4ccccc4)cnc32)cc1	-5	4.2	4	-24	1.8	0.74	i	0	2.6
O=C(CNc1ccccc1)N/N=C/c1ccc([N+](=O)[O-])o1	-44	.	.	.	.	.	.	24	2.8
Cc1ccc(S(=O)(=O)Nc2nc3ccccc3nc2NCc2ccco2)cc1	-17	-56	.	.	.	0.69	.	-7	-5.4
O=c1n(CC2CO2)c(=O)n(CC2CO2)c(=O)n1CC1CO1 (stereo not drawn)	.	.	10	12	-0.1	.	i	4	-1.9
CC(C)Oc1cccc(NC(=O)C2(C)CCN2C(=O)C(C)C)c1 (stereo not drawn)	.	.	-1	-3	-3.8	.	i	.	-2.0
Cc1[nH]c(=S)[nH]c(=O)c1CCOc1ccccc1	-6	2.1	.	.	.	0.65	.	-2	0.8
CSCCC(NC(=O)c1ccc(Cl)cc1Cl)C(=O)OC(C)C(=O)NCc1ccco1 (stereo not drawn)	0	5.3	1	7	1.2	0.69	i	8	-5.5
CC(NC(N)=O)C(=O)NCC(=O)OCc1ccccc1 (stereo not drawn)	.	3.7	15	3	1.0	0.66	i	-3	-1.7
CCc1ccccc1OCC(=O)Nc1cc(S(=O)(=O)N2CCOCC2)ccc1N1CCCCC1	.	2.4	5	7	13	0.69	i	4	2.6
COc1cc(C=O)ccc1OCCCOc1ccc([N+](=O)[O-])cc1	-38	0.5	13	15	-2.3	0.68	i	2	2.1
O=C(CSc1nc2ccc([N+](=O)[O-])cc2[nH]1)NC1CCCC1	-9	10	.	.	.	0.64	.	-2	-3.8
O=C(Nc1ccccc1)c1nn(-c2cccc(C(F)(F)F)c2)ccc1=O	0	7.0	3	12	-1.2	0.71	i	-15	-2.0
CCc1ccc(CN2CCCC(C(=O)Nc3ccc(-c4cscn4)cc3)C2)o1 (stereo not drawn)	-3	1.1	-7	-4	2.5	0.64	i	-13	9.1
CCCCOc1ccc(OC(=O)Nc2cc(Cl)ccc2OC)cc1	.	4.6	1	2	0.4	0.67	i	-9	0.7
O=C(O)c1ccc(N/N=C/c2cc(Br)cs2)cc1	98*	.	-13	-9	-1.4	.	i	10	-1.1
Cc1ccc(NC(=O)Cc2nc(COC(=O)Cc3cccc(C(F)(F)F)c3)cs2)cc1	.	-0.9	2	0	2.7	0.7	.	-3	9.9
CCC(=O)Nc1ccccc1C(=O)OCc1ccc(C(=O)c2ccccc2)cc1	-4	2.8	.	.	.	0.69	.	1	3.9
O=C(COC(=O)Cc1cccc(C(F)(F)F)c1)NCC1CCCO1 (stereo not drawn)	-12	-0.2	-2	-6	4.2	0.65	i	6	-4.4
Cn1ncc(Cl)c1C(=O)NCc1ccc2c(c1)OCO2	-21	2.3	-1	4	-1.4	0.69	i	-4	1.4
COc1cccc(/C=C/C(=O)OCC(=O)Nc2ccc(Cl)c(S(=O)(=O)N(C)C)c2)c1	-5	-9.7	-23	-23	-0.3	0.7	i	-6	4.3
CC(=O)NCCc1nc2ccccc2n1Cc1cccc(C)c1	0	2.0	-2	-7	-5.4	0.7	i	1	0.5
Clc1cccc(-c2nnc(SC/C=C/c3ccccc3)n2Cc2ccco2)c1	0	5.0	-12	-27	27	0.66	i	0	0.8
CCN1CCCC1CNC(=O)c1cc(COc2ccc(C)c(C)c2)on1 (stereo not drawn)	0	-1.1	1	-2	-1.5	0.64	i	4	10
O=C(NCC1CC1)Nc1cccs1	99*	1.5	6	0	7.1	0.66	i	1	-3.2
Cc1cc(C(=O)CSc2nc(N)cc(=O)[nH]2)ccc1F	90*	4.7	6	12	1.8	0.65	i	-3	0.0
CCCS(=O)(=O)N1CCC(C(=O)N2CCN(C(=O)OCC)CC2)CC1	-9	-2.4	.	.	.	0.72	.	10	1.3
COC(=O)c1sccc1NC(=O)/C=C/c1ccc(Cl)cc1Cl	-1	1.4	.	.	.	0.73	.	11	-2.9
COc1cccc(/C=C/c2n[nH]c(=O)c(C#N)c2C)c1	0	-4.3	5	10	-2.1	0.7	i	0	1.7
Cc1cc(C)c2nc(SCC(=O)NCC3CCCO3)c(C#N)cc2c1 (stereo not drawn)	-18	-23	13	4	2.6	0.71	i	-4	1.8
Cc1ccc(Cl)cc1N1CCN(C(CC(C)C)c2nnnn2CC2CCCO2)CC1 (stereo not drawn)	-5	0.5	.	.	.	0.7	.	4	-0.6
O=C(COc1ccc([N+](=O)[O-])cc1Cl)N1CCc2ccccc21	.	-1.8	4	11	-2.4	0.71	i	6	-1.0
CCN(C(=O)COC(=O)c1c2c(nc3ccccc13)/C(=C/c1ccccc1)CC(C)C2)C1CCS(=O)(=O)C1 (stereo not drawn)	-22	.	.	.	.	.	.	19	1.8
Cc1cccc(N2C(=O)/C(=C\c3ccc(OC(F)F)cc3)c3ccccc3C2=O)c1	.	1.6	.	.	.	0.7	.	25	-0.1
N#CC1=C(N)OC2=C(C(=O)CCC2)C1c1ccncc1 (stereo not drawn)	22	4.9	.	.	.	0.68	.	2	-1.5
CN(C)S(=O)(=O)N(CC(=O)Nc1ccccc1)c1ccccc1	-5	2.7	.	.	.	0.7	.	-2	0.8
CCCCC(=O)NC(c1ccccc1Cl)c1c(O)ccc2ccccc12 (stereo not drawn)	-12	-4.0	.	.	.	0.69	.	4	0.4
CC(=O)Cc1nsc(NC(=O)c2cc(-c3cccc(C(F)(F)F)c3)oc2C)n1	2	2.2	.	.	.	0.71	.	8	2.2
Cn1c(-c2cc3ccccc3oc2=O)nc2ccccc21	2	-11	2	-9	-1.2	0.58	i	-13	-0.6
CC(=O)c1ccc(NC(=O)C(Cc2ccccc2)n2cccc2)cc1 (stereo not drawn)	3	4.2	8	7	3.5	0.7	i	4	1.9
CN(C)C1=NC[C@H](Cc2ccccc2)N1CCCCc1ccccc1	-31	2.4	-22	-26	-2.2	.	i	-1	-0.5
Cc1ccc(S(=O)(=O)NCc2nnnn2-c2ccc(F)cc2)cc1	.	.	-3	8	-0.2	.	i	.	4.8
Cc1cc(C)n2nc(CC(=O)NC3CCCCCC3)nc2n1	-2	5.4	.	.	.	0.67	.	-7	0.8
O=C(O)CSc1ncccc1C(=O)O	-1	-0.2	14	5	-0.8	0.67	i	1	4.8
COc1ccc(S(=O)(=O)N[C@@H](Cc2ccccc2)C(=O)N2CC[C@@]3(O)CCCC[C@H]3C2)cc1	-6	4.0	.	.	.	0.74	.	-13	-1.1
O=C1N=C(N2CCCCC2)SC1=C1CCCC1	-4	2.9	.	.	.	0.68	.	-5	2.4
Cc1cc(C)c(NC(=O)CS(=O)CC(=O)NC2CCCc3ccccc32)c(C)c1 (stereo not drawn)	-12	-3.4	.	.	.	0.72	.	-4	26
Cc1c(CC(=O)O)c(=O)oc2c(C)c(OCc3ccccc3)ccc12	-1	-318	-13	-11	-2.8	0.68	i	-3	-3.5
Oc1ccc(F)c2cccnc12	-17	0.3	23	7	0.2	0.68	i	18	0.1
CCN(c1cccc(C)c1)S(=O)(=O)c1cc2c3c(c1)CCN3C(=O)CC2	-2	0.8	3	2	-2.2	0.7	i	-8	0.5
Cc1ccc(-n2c(-c3cccnc3)n[nH]c2=S)c(C)c1	84*	-5.5	.	.	.	0.66	.	6	2.2
Cc1noc(C)c1C(=O)NC(C)c1ccc2c(c1)OCO2 (stereo not drawn)	-1	1.9	.	.	.	0.68	.	-3	2.6
CC(=O)N1N=C(c2ccccc2)CC1c1cccs1 (stereo not drawn)	0	3.5	2	-3	0.8	0.68	i	3	0.0
COCCNC(=O)C1CC(c2ccccc2[N+](=O)[O-])=NO1 (stereo not drawn)	-4	5.0	3	9	-13	0.68	i	0	3.1
COc1ccccc1-c1nnc(N)s1	-6	-37	-4	1	-5.9	0.67	i	8	3.6
O=C1C(=Cc2cccs2)C(=O)c2ccccc21	7	8.6	0	5	0.8	0.66	i	5	-0.6
O=C(COc1ccccc1[N+](=O)[O-])N/N=C/c1ccc(O)c([N+](=O)[O-])c1	-7	.	19	15	-1.3	.	i	-2	-5.2
COC(=O)c1sc(C(F)(F)F)c(-c2ccccc2)c1S(=O)(=O)NC(C)(C)C	-12	2.0	-1	-1	0.8	0.59	i	7	-4.9
CC(=NCCc1ccccc1)C1=C(O)C(c2ccccc2)OC1=O (stereo not drawn)	-5	0.7	-20	-19	-4.9	0.61	i	-3	1.7
COC(=O)c1nn(-c2ccccc2)c(=O)cc1Oc1ccccc1	-13	4.7	.	.	.	0.68	.	6	-0.7
CCN(CC)c1nc(-c2cccc(OC)c2O)nc2ccccc12	12	5.5	.	.	.	0.75	.	3	0.1

Sorted by length of the SMILES (smallest number first): 3 of the compounds above
mol	ALR H2O2 inh	UCH37 DUB inh	Ecoli rRNA inh	Ecoli rRNA inh OD600	Ecoli rRNA inh RFP	E coli growth	FGF22 binding	B2AR ag	HNF4A DNA FP
O=C(NCC1CC1)Nc1cccs1	99*	1.5	6	0	7.1	0.66	i	1	-3.2
CC(C)Oc1cccc(NC(=O)C2(C)CCN2C(=O)C(C)C)c1 (stereo not drawn)	.	.	-1	-3	-3.8	.	i	.	-2.0
CCc1ccc(CN2CCCC(C(=O)Nc3ccc(-c4cscn4)cc3)C2)o1 (stereo not drawn)	-3	1.1	-7	-4	2.5	0.64	i	-13	9.1

(list continues)
mol	ALR H2O2 inh	UCH37 DUB inh	Ecoli rRNA inh	Ecoli rRNA inh OD600	Ecoli rRNA inh RFP	E coli growth	FGF22 binding	B2AR ag	HNF4A DNA FP
COc1ccc(Nc2c(-c3ccc(C)cc3)nc3cnccn23)cc1	99*	-59	-25	-37	-14	0.67	i	2	-4.6
CCOc1cc2[nH]c(=O)n(CC3CCC(C(=O)NCCCOC)CC3)c(=O)c2cc1OCC (stereo not drawn)	-2	-16	.	.	.	0.71	.	5	-2.3
COc1ccc(CN2C(=O)C(CC(=O)NC3CCCC3)CC(C(=O)N(C(C)C)C(C)C)=C2C)cc1 (stereo not drawn)	.	.	-3	-6	1.5	.	i	.	-4.8
CS(=O)(=O)N(CC(=O)N1CCN(Cc2ccccc2)CC1)c1ccc(F)cc1	-11	1.7	4	7	1.0	0.68	i	-16	-0.8
O=C(C1CCC(=O)N1Cc1cccnc1)N1CCN(c2ccc(F)cc2)CC1 (stereo not drawn)	29	2.8	6	12	-1.2	0.71	i	0	-3.5
COC(=O)[C@H](CCSC)NC(=O)NCCc1ccccc1F	-2	2.7	.	.	.	0.74	.	7	2.5
COc1ccc(-[n+]2c(C)cc(/C=C3\Sc4ccccc4N3C)cc2C)cc1	95*	24*	45	-78	-12	0.35*	i	.	50*
COc1cc(Br)c(Br)c(Br)c1N	2	-1.7	-45	-40	-7.0	0.62	i	2	0.5
O=C(Nn1cnnc1)c1ccccc1F	-8	2.1	16	14	0.3	0.72	i	3	1.3
Cc1ccc(S(=O)(=O)N(C)C[C@H]2Oc3cc(Br)ccc3S(=O)(=O)N([C@H](C)CO)C[C@@H]2C)cc1	.	.	4&-4	6&-19	-2.8&3.2	.	+!	.	-1.2

Only part of the results is shown (hit frequency here may not be typical).
